Bioassay records deposited in PubChem BioAssay by National Center for Advancing Translational Sciences (NCATS).
TRPV1 potentiator: HTS Assay for Compounds that Act as Potentiators of the Vanilloid Receptor 1 | TRPV1-expressing cells, Fluo-8 calcium influx, capsaicin EC20 potentiation; host cell line not named in the record; control for the full effect not named in the record | potentiation, % at 8.33 µM | hit rate 0.02% among 320,000 | AID 540277, 2011; active means potentiation above 80%; inconclusive means 30% to 80%; inactive means below 30%; note: 0% is about no effect
Target sequence (Q8NER1 whole entry, looked up): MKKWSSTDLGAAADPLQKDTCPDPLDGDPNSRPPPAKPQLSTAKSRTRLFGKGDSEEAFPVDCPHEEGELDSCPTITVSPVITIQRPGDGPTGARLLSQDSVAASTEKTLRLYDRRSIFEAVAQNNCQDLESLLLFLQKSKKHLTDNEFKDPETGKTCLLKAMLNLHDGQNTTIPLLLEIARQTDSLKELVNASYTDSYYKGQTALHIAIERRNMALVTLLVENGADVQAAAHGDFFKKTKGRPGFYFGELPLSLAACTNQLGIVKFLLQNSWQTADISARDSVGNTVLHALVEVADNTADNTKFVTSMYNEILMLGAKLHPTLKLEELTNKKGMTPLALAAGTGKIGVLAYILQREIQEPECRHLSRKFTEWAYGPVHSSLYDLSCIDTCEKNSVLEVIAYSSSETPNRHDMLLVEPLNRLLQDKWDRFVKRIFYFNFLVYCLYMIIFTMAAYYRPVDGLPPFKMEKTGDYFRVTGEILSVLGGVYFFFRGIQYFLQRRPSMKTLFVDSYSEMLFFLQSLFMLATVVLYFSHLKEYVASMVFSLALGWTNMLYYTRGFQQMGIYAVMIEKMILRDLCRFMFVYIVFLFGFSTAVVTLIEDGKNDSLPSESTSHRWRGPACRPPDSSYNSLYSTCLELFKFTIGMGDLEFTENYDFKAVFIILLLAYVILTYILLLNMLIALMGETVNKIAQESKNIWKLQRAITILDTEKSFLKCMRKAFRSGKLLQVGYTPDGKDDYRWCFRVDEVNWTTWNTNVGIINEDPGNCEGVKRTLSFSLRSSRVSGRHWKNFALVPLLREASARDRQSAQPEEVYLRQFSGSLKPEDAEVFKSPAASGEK
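Fluo-8 calcium influx in TRPV1-expressing cells, kinetic read (ex 480/em 520 nm). Compound added and read 3 min for agonist activity, followed by capsaicin at EC20 final and 2 min further read for enhancement.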
* = called active by the depositor; i = inactive; u = inconclusive.

SMILES	TRPV1 potentiator
CCCCn1c(=S)[nH]c2c(oc3ccc(Cl)cc32)c1=O	16
CCc1ccc(C2NC(C(=O)O)CS2)cc1 (stereo not given)	-3
O=C(NC(=S)NC1CCSC1=O)c1ccc([N+](=O)[O-])cc1 (stereo not given)	23
Cn1c(C(C#N)C2=C(Cl)C(=O)N(c3ccccc3)C2=O)nc2ccccc21 (stereo not given)	-9
COc1ccc(-c2nsc3c(SCC(=O)Nc4cc(C)ccc4C)ncnc23)cc1	2
Cc1ccc(NC(=S)/C(=C(\[O-])c2ccc(C)c([N+](=O)[O-])c2)[n+]2ccccc2)cc1C	6
COc1cc(C2c3c(oc4ccc(C)cc4c3=O)C(=O)N2c2cc(C)ccn2)cc(OC)c1OC (stereo not given)	-13
CC1OC(OC2C(OC3C(O[C@H]4CC[C@]5(C)C6C=C[C@]78OC[C@@]9(CC[C@@H](C)[C@H](C)C97)[C@H](O)C[C@@]8(C)[C@]6(C)CC[C@H]5C4(C)C)OC(C)C(O)C3O)OC(CO)C(O)C2O)C(O)C(O)C1O (stereo not given in full)	-33
O=S(=O)([O-])CCC[n+]1c(/C=C\Nc2ccccc2)oc2ccc(-c3ccccc3)cc21	-4
CC1(C)CN=C(N2CCN(C3=NCC(C)(C)S3)CC2)S1	17
Cc1ccc(NC(=S)Nc2ccc(S(=O)(=O)Nc3ncccn3)cc2)cc1Cl	u
CCCC1CC(=O)OC1(C)C(=O)CSc1n[nH]c(-c2ccccc2)n1 (stereo not given)	-2
OCCCc1nc2n(n1)C(c1cccs1)C=C(c1ccccc1)N2 (stereo not given)	-15
Cc1cccc(CSc2nc3ccncc3n2CC(=O)Nc2ccc(C)c(C)c2)c1	-1
Cc1cc(NC(=O)Cn2c(=O)n(CCCCC(=O)NC3CCN(Cc4ccccc4)CC3)c(=O)c3ccccc32)n[nH]1	1
CC(=O)NC(C)c1cc(Cl)c2cccnc2c1O (stereo not given)	-19
Cc1ccc(C)c2[nH]c(=O)c(CCNC(=O)C(C)C)cc12	5
COC(=O)C1CCN(CC(=O)Nc2cc(Cl)ccc2OC)CC1	-6
Cc1ccc(S(=O)(=O)c2cc3c(=O)n4cccc(C)c4nc3n(CC3CCCO3)c2=N)cc1 (stereo not given)	0
O=C(C1=C[C@@H]2[C@H]3C(=O)N(c4ccccc4)C(=O)[C@H]3[C@@H](C(=O)c3ccc(Cl)cc3)N2C=C1)c1ccccc1	11
CC(=O)Nc1ccc(/C=C/C(=O)c2ccccc2)cc1	-17
CCOCCCNC(=O)c1cn(C)c2ccc(S(=O)(=O)N(C)C3CCCCC3)cc2c1=O	-3
CCCCSc1nnc2c(n1)OC(C(=O)c1ccccc1)Nc1ccccc1-2 (stereo not given)	8
N#CCCS(=O)(=O)c1nnnn1-c1ccccc1	16
O.O.O.O=S(=O)([O-])OC[C@H]1O[C@@H](O[C@]2(COS(=O)(=O)[O-])O[C@H](OS(=O)(=O)[O-])[C@@H](OS(=O)(=O)[O-])[C@@H]2OS(=O)(=O)[O-])[C@H](OS(=O)(=O)[O-])[C@@H](OS(=O)(=O)[O-])[C@@H]1OS(=O)(=O)[O-].[Al]	9
CC(=O)c1cn(CCCCCCCCCCn2cc(C(C)=O)c(=O)[nH]c2=O)c(=O)[nH]c1=O	-9
CSCc1nnc(NC(=O)c2ccc(S(=O)(=O)N(CC(C)C)CC(C)C)cc2)o1	8
CCOC(=O)Cn1c(=O)c2c(nc3n2CCN3c2ccc(C)cc2)n(C)c1=O	-3
O=c1[nH]c(=O)c2ncc(-c3ccc(Cl)cc3)nc2[nH]1	2
C/C(=N\O)C1CCCCC1	9
O=C(NCc1nc2ccccc2[nH]1)C1=C[C@@H](c2ccc3c(c2)OCO3)C[C@@H](OCc2ccc(CO)cc2)O1	26
CCCCNS(=O)(=O)c1ccc2nc(-c3cccs3)cc(C(=O)NCC(OC)OC)c2c1	-2
Cc1cccc(/C=C2/Sc3ccc(C(=O)NCCCN4CCOCC4)cc3NC2=O)c1	11
CCCCCCN(C(=O)CCCCCN1C(=O)NC(c2ccc(-c3ccccc3)cc2)C(C(=O)OCc2ccccc2)=C1C)C(C(=O)NCCCC)c1ccccc1 (stereo not given)	-13
O=C(Oc1ccccc1O)c1cccc2ccccc12	8
CCCn1cnc2c(c1=O)c1nc3ccccc3nc1n2CCC1=CCCCC1	1
COc1ccc(NC(=O)c2cccc(C(=O)Nc3ccc(OC)cc3)n2)cc1	-7
CCN(CC)c1ccc(/C=N/NC(=O)C(O)(c2ccccc2)c2ccccc2)o1	9
O=C(c1ccc(N2CCN(C3CC(=O)N(c4ccc(F)cc4)C3=O)CC2)cc1)c1cccnc1 (stereo not given)	-9
CC(=O)NC(c1cccs1)c1cc(Cl)c2ccccc2c1O (stereo not given)	4
N#CC1(C#N)C2=C(CCCC2)NC(c2ccccc2)C1(C#N)C#N (stereo not given)	9
CCSCc1nnc(SCC(=O)Nc2nc(C)cs2)n1C	-20
O=C(c1cc2ccccc2c(=O)o1)N1CCCC1	3
Cc1ccc(CNC(=O)c2ccc3nc4[nH]c5ccccc5c4nc3c2)cc1	-7
CC1=C(C(=O)OCC2CCCCC2)C(c2cccc(O)c2)NC(=O)N1 (stereo not given)	16
COc1ccccc1-c1nn2c(-c3ccccc3Cl)nnc2s1	-3
N#Cc1ccc2c(c1)C[C@]1(c3ccsc3)OC3=C(C(=O)OC4(CCCCC4)C3)C2O1	i
CCCOc1ccc2oc(=O)c3c(c2c1)CCCN3C(=O)CN1CCN(C(=O)c2ccco2)CC1	-36
COc1cc(C(=O)NS(=O)(=O)c2ccccc2C)ccc1Cc1cn(C)c2ccc(NC(=O)OC3CCCC3)cc12	-2
COc1ccc2c3c(c(=O)oc2c1)C1O[C@](c2ccsc2)(Cc2ccccc21)O3	i

An excerpt of these results, field by field:
N#Cc1ccc2c(c1)C[C@]1(c3ccsc3)OC3=C(C(=O)OC4(CCCCC4)C3)C2O1
  TRPV1 potentiator: i

CCCOc1ccc2oc(=O)c3c(c2c1)CCCN3C(=O)CN1CCN(C(=O)c2ccco2)CC1
  TRPV1 potentiator: -36

COc1cc(C(=O)NS(=O)(=O)c2ccccc2C)ccc1Cc1cn(C)c2ccc(NC(=O)OC3CCCC3)cc12
  TRPV1 potentiator: -2

Further results follow.
SMILES	TRPV1 potentiator
COC(=O)[C@@]1(Cc2ccc(OC)cc2)[C@H]2c3cc(C(=O)N4CCCC4)n(CCc4c[nH]c5ccc(O)cc45)c3C[C@H]2CN1C(=O)c1ccccc1	17
Cc1c(C(C)(C(=O)O)c2c(C)n(C)c3ccccc23)c2ccccc2n1C	-4
COc1cc(OC)cc(C(=O)Nc2cccc(-c3ccc4nncn4n3)c2)c1	-3
O=C(O)C(Cc1ccccc1)N1C(=O)/C(=C/c2cccc3ccccc23)SC1=S (stereo not given)	23
CC(=O)OCCCN1C(=O)c2cccc3cc(Br)cc(c23)C1=O	-6
CC1OC(O[C@H]2CC[C@]3(C)C4C=C[C@]56OC[C@@]7(CC[C@@H](C)[C@H](C)C75)[C@H](O)C[C@@]6(C)[C@]4(C)CC[C@H]3C2(C)C)C(OC2OC(CO)C(O)C(O)C2OC2OCC(O)C(O)C2O)C(O)C1O (stereo not given in full)	-45
Cc1ccc(S(=O)(=O)N2CCN(c3nc(C)nc4sc5c(c34)CCC(C)C5)CC2)cc1 (stereo not given)	11
O=C(Sc1nnnn1C1CCCCC1)c1cccs1	-12
COc1ccc(-c2nnc3sc(-c4ccccn4)nn23)cc1	18
CN1CCN(NC(=O)CN2C(=O)/C(=C/c3ccccc3F)SC2=S)CC1	-6

Reprinted at random: five entries already listed, in no set order.
SMILES	TRPV1 potentiator
COc1ccc(-c2nsc3c(SCC(=O)Nc4cc(C)ccc4C)ncnc23)cc1	2
CCCC1CC(=O)OC1(C)C(=O)CSc1n[nH]c(-c2ccccc2)n1 (stereo not given)	-2
CC1=C(C(=O)OCC2CCCCC2)C(c2cccc(O)c2)NC(=O)N1 (stereo not given)	16
CC(=O)c1cn(CCCCCCCCCCn2cc(C(C)=O)c(=O)[nH]c2=O)c(=O)[nH]c1=O	-9
CCCCCCN(C(=O)CCCCCN1C(=O)NC(c2ccc(-c3ccccc3)cc2)C(C(=O)OCc2ccccc2)=C1C)C(C(=O)NCCCC)c1ccccc1 (stereo not given)	-13

Shown with each value named: 4 of the compounds above.
COC(=O)[C@@]1(Cc2ccc(OC)cc2)[C@H]2c3cc(C(=O)N4CCCC4)n(CCc4c[nH]c5ccc(O)cc45)c3C[C@H]2CN1C(=O)c1ccccc1
  TRPV1 potentiator: 17

Cc1c(C(C)(C(=O)O)c2c(C)n(C)c3ccccc23)c2ccccc2n1C
  TRPV1 potentiator: -4

COc1cc(OC)cc(C(=O)Nc2cccc(-c3ccc4nncn4n3)c2)c1
  TRPV1 potentiator: -3

O=C(O)C(Cc1ccccc1)N1C(=O)/C(=C/c2cccc3ccccc23)SC1=S (stereo not given)
  TRPV1 potentiator: 23

Next section.
SMILES	TRPV1 potentiator
Cn1c(N2CCN(C(=O)C34CC5CC(CC(C5)C3)C4)CC2)nc2ccccc21	-3
Cc1cc2c(n1-c1ccc(C(=O)O)cc1)CCCCC2	27
CCOc1ccc(C2C(C#N)=C(N)SC(N)=C2C#N)cc1OC	-1
Cc1ccccc1SCCNC(=O)CCc1ccccc1	-8
Cc1ccc(S(=O)(=O)NC(=O)c2ccc(-c3ccc(-c4ccccc4)cc3)o2)c(C)c1	u
O=S(=O)(NC1CCC(NS(=O)(=O)c2c(F)cccc2F)CC1)c1ccc2c(c1)OCCO2 (stereo not given)	10
COc1ccc(CC(NC(C)=O)C(=O)NC2CCN(c3c(Cc4ccccc4)c(C)nc4ncnn34)CC2)cc1OC (stereo not given)	7
O=C(O)c1cc(-c2ccc(/C=c3\sc4nc5ccc(Br)cc5n4c3=O)o2)ccc1Cl	-4
O=C(NCc1ccco1)c1ccc2c(=O)n(-c3ccccc3)c(=O)n(Cc3cccc(F)c3)c2c1	-41
COc1cccc(C2/C(=C(\O)c3c(C)nc4c(C)cccn34)C(=O)C(=O)N2CCCN(C)C)c1 (stereo not given)	-3
CCOC(=O)c1cnc2c(N=Nc3cccc(Cl)c3)c(N)nn2c1N	-7
Cn1c(=O)c2c(SCC(=O)N3CCOCC3)nc(CC(C)(C)C)nc2n(C)c1=O	-4
O=C(CC1Nc2ccccc2NC1=O)c1ccccc1 (stereo not given)	19
O=C(NC(c1ccccc1)c1cc(Cl)c2cccnc2c1O)c1cccnc1 (stereo not given)	8
CC(=O)c1ccccc1NC(=O)COC(=O)c1ccc2c(c1)nc(C)n2-c1ccccc1	21
COc1cccc(NC(=O)c2cc3cccc(OC)c3o/c2=N\O)c1	-21
COC(=O)c1ccc(/C=N/Nc2nc(-c3ccc(Cl)cc3Cl)cs2)cc1	-4
C/C(CCN1CCCCc2nc(C)c(C)cc21)=N\O[C@@H](C)CN1CCCCc2nc(C)c(C)cc21	-10
CCN(CC)CCCNC(=O)c1ccc2c(SCC(=O)O)c3c(nc2c1)CCC3	-3
Cc1ccc2occ(CN3CCN(Cc4ccccc4)CC3)c(=O)c2c1	-6
CC1(C)CC(=O)C2=C(C1)NC(=O)CC2C(=O)NCc1ccc(F)cc1 (stereo not given)	u
O=C(CNS(=O)(=O)c1ccc(Br)cc1)OCc1cc(=O)n2cc(Br)ccc2n1	1
COc1cc2nc(-c3ccccc3)nc(N3CCCC3)c2cc1OC	-6
CCn1cc(C(=O)N/N=C(/C)c2ccc(F)cc2)c(=O)c2cc(F)c(N3CCCC3)cc21	-7
COc1cccc2[nH]c3c(N4CC(C)CC(C)C4)ncnc3c12 (stereo not given)	-11
CCCn1c(=NC(=O)c2ccc3c(c2)OCO3)c(C#N)cc2c(=O)n3cccc(C)c3nc21	-4
COc1cc(C)c(Cl)cc1S(=O)(=O)NCc1ccncc1	14
Cc1ccccc1NC(=O)c1c(O)c2cccc3c2n(c1=O)CCC3	-11
OC(CN1CCNCC1)Cn1ccc2ccccc21 (stereo not given)	-1
Cc1ccccc1Nc1nc(-c2sc(NC(=O)c3cccc(Cl)c3)nc2C)cs1	-6

This is a subset; the hit share may differ from the screen's.
